ELG1 genotoxic = induces genotoxicity in HEK293T cells with luciferase-tagged ELG1; AID 504466; HEK293T ELG1-luciferase reporter, luminescence, 16 h; actives 1.3% (n = 330,000); Potency, µM (titrated, usually from 46 µM), without a hit: top-dose activity change, positive = activation, hits mostly activators; note: potency is the fitted concentration of half-maximal effect; % of control where 0% means no effect; nearly all actives have a fitted effect of over 60% in size
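After overnight (16 hr) compound treatment at 37 °C, ELG1-luciferase HEK293T cells were lysed with ONE-Glo; luminescence quantified 30 min later at room temperature.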
Gal4-VP16 FLuc = Gal4-VP16 reporter inhibition counter-screen. Drosophila S2 Gal4-VP16 UAS-luciferase, luminescence, 20 h. Potency, µM (series often up to 53.6 µM), without a hit: at the highest dose activity, negative = inhibition, actives largely listed as inhibitors. actives 3.5% (n = 310,000). AID 2546;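 note: Gal4-VP16 expression switched on by copper sulfate through the metallothionein promoter; potency is the fitted concentration of half-maximal effect; % is set by controls: 0 for no effect and ±100 for the full control effect; nearly all actives have a fitted effect of over 50% in size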
RORgamma inh = blocks mouse ROR gamma transcriptional activity; P51450; Drosophila S2 Gal4-RORgamma UAS-luciferase reporter, 20 h; Potency, µM (top dose mostly 53.6 µM), without a hit: at the top dose activity change, negative = inhibition, most hits filed as inhibitors; actives 5.4% (n = 310,000); note: potency is the fitted concentration of half-maximal effect; % is set by controls: 0 for no effect and ±100 for the full control effect; nearly all actives have a fitted effect of over 60% in size
Target sequence (P51450 whole entry, looked up, the tested form may be a part): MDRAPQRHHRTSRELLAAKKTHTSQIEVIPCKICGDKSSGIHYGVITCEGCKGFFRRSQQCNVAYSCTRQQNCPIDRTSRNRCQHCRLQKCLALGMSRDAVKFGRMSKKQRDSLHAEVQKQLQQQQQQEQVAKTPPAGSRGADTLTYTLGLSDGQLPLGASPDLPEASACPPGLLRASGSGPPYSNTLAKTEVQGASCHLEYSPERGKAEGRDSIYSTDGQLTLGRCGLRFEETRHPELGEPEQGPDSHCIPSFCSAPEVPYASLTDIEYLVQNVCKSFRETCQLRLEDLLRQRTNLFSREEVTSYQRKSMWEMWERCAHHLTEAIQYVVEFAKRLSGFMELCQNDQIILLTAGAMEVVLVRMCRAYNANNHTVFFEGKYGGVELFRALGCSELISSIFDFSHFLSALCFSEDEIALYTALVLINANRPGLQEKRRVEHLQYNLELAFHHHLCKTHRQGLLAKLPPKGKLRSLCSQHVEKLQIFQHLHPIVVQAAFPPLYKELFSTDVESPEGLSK
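Stably transfected Drosophila Schneider cells are the test system, with ROR gamma fused to Gal4 and luciferase under UAS control; luminescence is read after 20 hr of 700 uM copper sulfate induction at ambient temperature.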
Rab9 prom act = activates the Rab9 promoter; actives 2.8% (n = 320,000); Potency, µM (doses to about 9.22 µM), for inactives: at the highest dose activation, negative = inhibition, most hits filed as activators; Huh7 Rab9 promoter-luciferase reporter, luminescence, 24 h; note: potency is the fitted concentration of half-maximal effect; % of control where 0% means no effect; nearly all actives have a fitted effect of over 60% in size
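Measured in stably transfected Huh7 cells bearing a Rab9 promoter–luciferase construct: 24 h compound treatment at 37 °C, followed by luminescence detection.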
NPC1 prom act = activators of NPC1 promoter. Huh7 NPC1 promoter luciferase reporter, 24 h. Potency, µM (top dose mostly 9.22 µM), for inactives: top-dose activation, most hits filed as activators. actives 2.4% (n = 320,000);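 note: potency is the fitted concentration of half-maximal effect; % of control where 0% means no effect; nearly all actives have a fitted effect of over 60% in size; reporter is driven by a mutant NPC1 promoter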
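Huh7 cells stably carrying NPC1 promoter–luciferase, plated in Opti-MEM with 10% FBS for 2 h, were exposed to compound in DMSO for 24 h at 37 °C; luciferase reagent was added for 10 min and luminescence read.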
Tb PFK inh = T. brucei PFK enzyme inhibition. O15648. T. brucei PFK, ADP-Glo luminescence. actives 0.17% (n = 330,000). Potency, µM (highest dose often 57.5 µM), for inactives: at the top dose activity, negative = inhibition, usual class: inhibitors. AID 485367;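 note: potency is the fitted concentration of half-maximal effect; 0% = uninhibited 1x PFK enzyme wells and -100% = no-enzyme wells; nearly all actives have a fitted effect of over 60% in size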
Target sequence (O15648 whole entry, looked up): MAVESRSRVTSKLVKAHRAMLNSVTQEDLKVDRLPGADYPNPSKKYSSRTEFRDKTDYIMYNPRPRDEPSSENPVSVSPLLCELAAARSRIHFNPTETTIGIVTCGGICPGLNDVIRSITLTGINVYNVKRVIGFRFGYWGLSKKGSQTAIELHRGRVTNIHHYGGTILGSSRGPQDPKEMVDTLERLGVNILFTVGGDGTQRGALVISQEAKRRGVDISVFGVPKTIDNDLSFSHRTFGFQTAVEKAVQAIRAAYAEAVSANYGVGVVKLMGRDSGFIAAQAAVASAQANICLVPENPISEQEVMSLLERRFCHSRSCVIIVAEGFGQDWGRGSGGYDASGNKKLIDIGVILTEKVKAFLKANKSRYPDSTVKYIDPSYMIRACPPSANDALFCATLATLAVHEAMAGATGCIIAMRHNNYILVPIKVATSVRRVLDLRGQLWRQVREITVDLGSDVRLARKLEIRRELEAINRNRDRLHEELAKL
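Activity is normalized to no-enzyme wells (full inhibition) and 1.25 nM enzyme wells (no inhibition). Reaction: 0.5 mM F6P, 0.1 mM ATP, 45 min RT, ADP-Glo luminescence; concentration-response curves fitted and classed by quality.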
FBPA coupling cs = inhibits coupling enzyme system, counter-screen for aldolase hits; coupling enzyme system counterscreen, AmpLite Red fluorescence; activity change, negative = inhibition, % at 58.2 µM, hits read low; actives 0.67% (n = 290,000); in the data active = activity change below about -30%; note: % is set by controls: 0 for no effect and ±100 for the full control effect
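Counterscreen of the coupled detection system alone, without aldolase: glyceraldehyde-3-phosphate coupling enzymes plus AmpLite Red readout. Compounds at 57.5 uM final, 10 min RT preincubation, 20 min RT reaction, fluorescence 525/598 nm.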
uPA surface inh = blocks generation of uPA at the cell surface. cell surface uPA generation assay, qHTS. Potency, µM (highest dose often 38.3 µM), without a hit: at the top dose activity change, negative = inhibition, actives largely listed as inhibitors. actives 0.31% (n = 330,000); active = well fitted inhibition curve with a large enough effect; inconclusive = small, poorly fitted or top-dose-only effect; inactive = no such curve, though single readings can be large or run the other way; tested in mouse RAW 264.7 cells; note: potency is the fitted concentration of half-maximal effect; % is set by controls: 0 for no effect and ±100 for the full control effect; nearly all actives have a fitted effect of over 55% in size
Giardia killer = kills Giardia lamblia. Giardia lamblia trophozoite viability. activity change, % at 7.66 µM, hits read low. actives 0.15% (n = 340,000). AID 540267; in the data active = activity change below about -80%; inconclusive = between about -30% and that limit;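 note: parasites exposed to compound for two days anaerobically before the ATP read; % is set by controls: 0 for no effect and ±100 for the full control effect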
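Giardia lamblia trophozoites (100 cells/well) were incubated with compounds for 48 h at 37 deg C under anaerobic conditions. Viability was read as ATP content by one-step luminescence after 15-30 min at room temperature.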
Active calls of the source: *; ? = inconclusive; . = not tested or not shown; & = joins results of further samples; [ ] = dose if it differs, or a comment. Unless noted, calls come from the whole dose curve; as a rule, active = well fitted curve in the direction sought with a large enough effect; inconclusive = small, poorly fitted or top-dose-only effect, or another doubt; inactive = no such curve, though single readings can be large; an effect the other way counts as inactive or inconclusive. This is a subset, so the mix of outcomes need not match the whole.

mol,ELG1 genotoxic,Gal4-VP16 FLuc,RORgamma inh,Rab9 prom act,NPC1 prom act,Tb PFK inh,FBPA coupling cs,uPA surface inh,Giardia killer
COc1ccc2cc(CN(CCO)C(=O)c3ccc(Br)cc3)c(=O)[nH]c2c1,-4.4%,-26.5%,21.9%,-2.3%,-0.5%,-0.7%,-11.5,-7.3%,-3.1
CC/C(=N\n1nnnc1Nc1ccccc1)c1ccccc1,0.2%,?,-35.3%,1.3%,-1.7%,0.1%,-4.1,1.2%,?
O=C(C(Cc1ccccc1)N1C(=O)C2C3C=CC(C3)C2C1=O)N1CCCCCC1 (stereo unspecified),.,0.8%,-0.9%,.,.,.,-0.4,-0.2%,8.9
O=C1OC(c2ccc(O)cc2)(c2ccc(O)cc2)c2ccccc21,2.4%,3.0%&-7.3%&-2.5%&8.0%,-8.8%,-5.5%,0.4%,-2.9%,17.2&13.8,12.2%,?
CCOC(=O)c1ccc(NC(=O)CSc2nc3c(c(=O)n2CC)SC(C)C3)cc1 (stereo unspecified),-12.3%,-15.4%,3.9%,-1.1%,-2.5%,-1.6%,0.0,-11.9%,15.5
O=C(Cn1ncc2c1-c1ccccc1OC2)N1CCc2ccccc21,-0.5%,24.3%,26.7%,-1.8%,-0.1%,-0.2%,2.5,2.3%,-27.3
CCCc1nn(C)c2c(=O)[nH]c(-c3cc(S(=O)(=O)N4CCN(C)CC4)ccc3OCC)nc12,-1.0%,2.2%&-3.8%&-13.5%,-1.1%&0.0%&0.5%,-1.8%,3.0%,-0.6%,-0.4&2.3&-0.8,3.5%,-11.2
Cc1cc2n(c(=O)c1C#N)CCCN2c1ccccc1,0.1%,13.3%,?,-2.4%,-3.8%,2.9%,-0.1,4.5%,-2.5
NCCc1cnc[nH]1,-1.9%&2.0%,-1.6%&1.2%&-4.1%&2.7%&-2.4%,1.4%,2.5%[46.1 µM],1.6%[46.1 µM],-3.5%&-0.5%,3.8&1.8&1.9&3.0,12.9%&14.7%,38.9&11.9[activator]
CCC[C@@H]1C[C@@H](C(=O)N[C@@H](C2O[C@H](SC)[C@H](O)[C@@H](O)[C@H]2O)[C@H](C)Cl)N(C)C1 (stereo partly specified),0.0%,6.8%,8.7%,-0.1%,1.3%,-3.0%,-0.3,5.3%,-22.3
O=C(c1ccc(OCCN2CCCCC2)cc1)c1c(-c2ccc(O)cc2)sc2cc(O)ccc12,?,?,?,-23.3%[46.1 µM],-16.8%[46.1 µM],-2.4%,1.4&1.0&3.4,-18.6%&-19.9%,-10.2&28.4
CC(=O)NC1(NC(C)=O)CCN(C)C(c2ccccc2)C1C (stereo unspecified),-7.8%,-2.2%,-33.3%,-4.6%,-1.1%,-9.3%,0.3,3.8%,3.2
Cn1c(CCN2CCCCC2)nc2cc(NS(=O)(=O)c3ccccc3)ccc21,-0.2%,6.6%,-3.4%,-0.5%,-4.9%,-4.9%,0.7,-3.0%,-7.3
CC(Sc1nc2ccccc2s1)C(=O)N1CCOCC1 (stereo unspecified),?,6.2%,47.1%,16.4%,18.5%,-4.7%,2.2,-0.4%,4.7
Cc1cc(C)n(C(=O)C(C)n2nc([N+](=O)[O-])c(Br)c2C)n1 (stereo unspecified),1.2%,-1.8%,-6.4%,10.3%,-0.1%,-3.5%,5.2,1.9%,-7.1
COCCOC(=O)C1=C(C)NC(C)=C(C(=O)OC(C)C)C1c1cccc([N+](=O)[O-])c1 (stereo unspecified),-2.2%,-2.2%&-3.8%&-6.5%&5.3%,?,-6.0%[46.1 µM],-9.7%[46.1 µM],-4.0%&-4.8%,-1.6&-0.4&-1.1,8.5%,0.4
COc1cccc(C2=NOC(C(=O)NC(C)C)C2)c1 (stereo unspecified),1.3%,-0.1%,2.8%,-3.9%,1.0%,2.4%,1.6,-3.0%,15.6
CC1CCc2c(nc3ncnn3c2Nc2ccc(OC(F)(F)F)cc2)C1 (stereo unspecified),-4.2%,?,?,-2.4%,-4.6%,0.2%,0.4,1.9%,-1.6
CN(C)CC[C@@H](c1ccc(Cl)cc1)c1ccccn1,.,-4.0%&-1.4%,3.7%&12.6%,-7.0%[46.1 µM],3.0%[46.1 µM],.,-1.2&4.6,-16.5%,-12.7
CSc1ccccc1NC(=O)c1cc(CC(C)C)on1,20.6µM*,4.4%,-20.6%,?,?,-2.3%,-0.4,-8.9%,-17.0
Cc1nnc(SCC(=O)NCc2cccs2)[nH]c1=O,-0.2%,-8.7%,-26.8%[10 µM],-5.4%,4.1%,-1.8%,-0.6,7.3%,-15.6
O=C(Nc1ccccc1)c1ccccc1NS(=O)(=O)c1ccc(Cl)s1,-3.9%,?,?,0.0%,-3.1%,-13.0%,11.8,-5.8%,4.7
Cc1[nH]nc2c1C(c1ccccc1)C1=C(CC(C)(C)CC1=O)N2 (stereo unspecified),-4.9%,16.4%,1.4%,-1.3%,-3.7%,0.4%,0.2,19.8%,4.7
O=C(NCc1ccccc1Cl)c1ccccc1Oc1ccccc1,-0.9%,-4.9%,?,5.8%,-2.9%,-6.0%,12.5,4.0%,-18.3
COc1ccccc1NC(=O)CSc1nccc(=O)[nH]1,-10.6%,-3.8%,-11.6%,4.1%,-1.5%,13.8%,5.3,.,7.2
O=C1OCCN1/N=C/c1ccc([N+](=O)[O-])o1,-1.4%,.,?,0.5%,8.8%,-4.9%,-14.2&1.8,-26.5%,-92.2*
CCC(C)C(NC(=O)OC(C)(C)C)C(=O)NCc1ccco1 (stereo unspecified),0.9%,1.3%,7.5%,4.6%,-1.3%,-5.1%,1.7,0.0%,6.7
COCCOC(=O)C1=C(C)NC(C)=C(C(=O)OC(C)C)[C@@H]1c1cccc([N+](=O)[O-])c1,.,6.1%,10.2%,.,.,.,0.1,.,.
CCN1CCN(C(=O)CS(=O)Cc2nc(-c3ccc(OC)cc3)oc2C)CC1 (stereo unspecified),1.8%,?,1.3%,-8.3%,2.7%,1.4%,0.9,?,-18.9
O=C(N[C@H](CO)[C@H](O)c1ccc([N+](=O)[O-])cc1)C(Cl)Cl,.,4.4%&-0.5%,3.6%&-23.3%,.,.,.,1.4,0.4%,-25.3

A second format for two compounds above.
Cc1cc(C)n(C(=O)C(C)n2nc([N+](=O)[O-])c(Br)c2C)n1 (stereo unspecified)
  ELG1 genotoxic: 1.2%
  Gal4-VP16 FLuc: -1.8%
  RORgamma inh: -6.4%
  Rab9 prom act: 10.3%
  NPC1 prom act: -0.1%
  Tb PFK inh: -3.5%
  FBPA coupling cs: 5.2
  uPA surface inh: 1.9%
  Giardia killer: -7.1
CCCc1nn(C)c2c(=O)[nH]c(-c3cc(S(=O)(=O)N4CCN(C)CC4)ccc3OCC)nc12
  ELG1 genotoxic: -1.0%
  Gal4-VP16 FLuc: 2.2%&-3.8%&-13.5%
  RORgamma inh: -1.1%&0.0%&0.5%
  Rab9 prom act: -1.8%
  NPC1 prom act: 3.0%
  Tb PFK inh: -0.6%
  FBPA coupling cs: -0.4&2.3&-0.8
  uPA surface inh: 3.5%
  Giardia killer: -11.2

Carrying on.
mol,ELG1 genotoxic,Gal4-VP16 FLuc,RORgamma inh,Rab9 prom act,NPC1 prom act,Tb PFK inh,FBPA coupling cs,uPA surface inh,Giardia killer
O=C(O)c1ccc2c(c1)CC(c1ccccc1)OC2=O (stereo unspecified),2.3%,?,36.5%,4.0%,-2.7%,3.0%,7.5,3.6%,-3.3
Cc1cc(/C=C\c2ccc3cc(N(C)C)ccc3[n+]2C)c(C)n1-c1ccccc1,?,2.82µM*,27.4%[2.98 µM],-46.1%[inhibitor],-38.1%[inhibitor],-19.4%,-18.5,?,-0.9
CCN(CC)CC#CCOC(=O)C(O)(c1ccccc1)C1CCCCC1 (stereo unspecified),1.7%,-10.0%,-7.1%,-29.5%[46.1 µM],-20.6%[46.1 µM],2.7%,0.1,0.0%,46.2[activator]
Cc1ccc(NC(=O)Cn2nc(C)c3ccccc3c2=O)cc1F,2.6%,-4.8%,-2.4%,4.1%,0.5%,-5.3%,-0.8,6.4%,-17.1
CSC1=C(C#N)C(c2ccccc2Cl)C(C(C)=O)=C(C)N1 (stereo unspecified),-3.0%,-0.1%,3.3%,-2.5%,-0.7%,-2.0%,2.7,9.5%,-1.8
COc1ccc(C2CC(=O)c3cnc(NC(=O)c4cccc(OC)c4)nc3C2)cc1 (stereo unspecified),2.4%,3.5%,0.9%,-0.9%,-7.0%,6.7%,5.6,-3.2%,2.8
Cc1c(N)c(=O)n(-c2ccccc2)n1C,-4.0%,0.5%,14.1%,-3.8%,-9.9%,-4.7%,1.4&-0.3,7.5%,-11.5
CCOc1ccc(-c2cc(C(=O)N3CCN(c4ccccn4)CC3)c3ccccc3n2)cc1,?,-23.4%,1.4%,?,?,0.0%,2.2,.,?
CC(C)C(=O)N1CCN(C2=NS(=O)(=O)c3ccccc32)CC1,-8.9%,-4.6%,2.9%,-9.4%,0.8%,14.0%,-0.7,4.8%,0.6

Full records, looked up by structure.
Cc1cc(/C=C\c2ccc3cc(N(C)C)ccc3[n+]2C)c(C)n1-c1ccccc1 as listed: ELG1 genotoxic = ?; Gal4-VP16 FLuc = 2.82µM*; RORgamma inh = 27.4%[2.98 µM]; Rab9 prom act = -46.1%[inhibitor]; NPC1 prom act = -38.1%[inhibitor]; Tb PFK inh = -19.4%; FBPA coupling cs = -18.5; uPA surface inh = ?; Giardia killer = -0.9
CCOc1ccc(-c2cc(C(=O)N3CCN(c4ccccn4)CC3)c3ccccc3n2)cc1 as listed: ELG1 genotoxic = ?; Gal4-VP16 FLuc = -23.4%; RORgamma inh = 1.4%; Rab9 prom act = ?; NPC1 prom act = ?; Tb PFK inh = 0.0%; FBPA coupling cs = 2.2; uPA surface inh = .; Giardia killer = ?
